H5N1 CPE: MDCK cell protection from H5N1 avian flu | cytopathic effect, luminescence, 72 h; active compounds read high; no value below 0 was filed and about half of the inactive calls have no number; reference of the scale not given here | inhibition, % at 50 µM | 96,000 tested, 0.07% active | AID 740, 2007; in the data active = inhibition above about 25%
* = called active by the depositor; i = inactive. A portion of the library, so the mix of outcomes need not match the whole.

A first look, five compounds:
SMILES	H5N1 CPE
Clc1ccccc1-c1nnc2sc(-c3ccc(Br)o3)nn12	i
COCCn1c(COc2cccc(OC)c2)nnc1SCC(=O)N1CCOCC1	0.1
CCCc1nc2c(=O)n(C)c(=O)[nH]c2n1C	i
CC1=CC(C)(C)Nc2ccc(OC(=O)C(Cc3ccccc3)N3C(=O)C4CCCCC4C3=O)cc21 (stereo unspecified)	i
COc1ccc(CCNC(=O)C(=O)NCc2ccc(C(C)C)cc2)cc1OC	i

The list itself, repeating the preview:
SMILES	H5N1 CPE
Clc1ccccc1-c1nnc2sc(-c3ccc(Br)o3)nn12	i
COCCn1c(COc2cccc(OC)c2)nnc1SCC(=O)N1CCOCC1	0.1
CCCc1nc2c(=O)n(C)c(=O)[nH]c2n1C	i
CC1=CC(C)(C)Nc2ccc(OC(=O)C(Cc3ccccc3)N3C(=O)C4CCCCC4C3=O)cc21 (stereo unspecified)	i
COc1ccc(CCNC(=O)C(=O)NCc2ccc(C(C)C)cc2)cc1OC	i
O=C(CCn1c(=O)[nH]c2ccccc2c1=O)Nc1ccccc1	i
COc1ccccc1NC(=O)N1CCN(c2cccc(C(F)(F)F)c2)CC1	i
CC(=O)c1c(C)nn(CC(O)Cn2c3c(c4cc(C)ccc42)CCCC3=O)c1C (stereo unspecified)	i
Cc1ccc(OCC(O)CN2CCN(CC(O)COc3ccc(C)cc3)CC2)cc1 (stereo unspecified)	i
COc1ccc(N2CCN(c3nc(Nc4ccc(F)cc4)nc(OC)n3)CC2)cc1	i
CC(C)OP(=O)(c1ccc(N(C)C)cc1)C(O)c1c(Cl)cccc1Cl (stereo unspecified)	2.8
COc1cccc(C2=CC(c3ccccc3)n3nnnc3N2)c1 (stereo unspecified)	0.3
Cc1ccc(NC(=O)NC(=O)CSc2nnnn2C)c(C)c1	0.1
O=S(=O)(c1cccs1)n1cnc2ccccc21	i
c1ccc2c(c1)Cn1nc(Cc3nc4c(s3)CCCC4)nc1-2	i

Molecules listed so far containing fluorine:
SMILES	H5N1 CPE
COc1ccccc1NC(=O)N1CCN(c2cccc(C(F)(F)F)c2)CC1	i
COc1ccc(N2CCN(c3nc(Nc4ccc(F)cc4)nc(OC)n3)CC2)cc1	i

The main list resumes, starting 7 compounds before the break.
SMILES	H5N1 CPE
Cc1ccc(OCC(O)CN2CCN(CC(O)COc3ccc(C)cc3)CC2)cc1 (stereo unspecified)	i
COc1ccc(N2CCN(c3nc(Nc4ccc(F)cc4)nc(OC)n3)CC2)cc1	i
CC(C)OP(=O)(c1ccc(N(C)C)cc1)C(O)c1c(Cl)cccc1Cl (stereo unspecified)	2.8
COc1cccc(C2=CC(c3ccccc3)n3nnnc3N2)c1 (stereo unspecified)	0.3
Cc1ccc(NC(=O)NC(=O)CSc2nnnn2C)c(C)c1	0.1
O=S(=O)(c1cccs1)n1cnc2ccccc21	i
c1ccc2c(c1)Cn1nc(Cc3nc4c(s3)CCCC4)nc1-2	i
O=C(CC(c1ccccc1)c1ccccc1)Nc1ccc(Cl)cn1	i
COc1cc2c(cc1OC)CN(C(=O)Cc1ccc(OC)c(S(=O)(=O)N3CCOCC3)c1)CC2	1.8
COc1ccccc1OC(C)c1nnc(SCC(=O)Nc2c(C)n(C)n(-c3ccccc3)c2=O)n1-c1ccccc1 (stereo unspecified)	1.1
CS(=O)(=O)N(CC(=O)N1CCOCC1)Cc1ccc(Cl)cc1	i
CCc1nc(N2CCN(C(=O)c3ccccc3)CC2)c(C#N)c2c1COC(C)(C)C2	i
Cn1c(=O)c2c(nc(SCCCC#N)n2Cc2ccccc2F)n(C)c1=O	3.5
CCOC(=O)N1CCN(C(=O)c2oc3ccc(S(=O)(=O)N4CC(C)CC(C)C4)cc3c2C)CC1 (stereo unspecified)	i
COC(=O)C(C)C1Sc2ccccc2NC1=O (stereo unspecified)	0.4
COc1ccccc1C(=O)NCCCn1cc(Br)c(C)n1	i
O=C(O)c1ccc(NC(=O)c2cccs2)cc1	i
COc1cccc(-n2c(SCC(=O)NCCc3ccccc3)nnc2-c2ccoc2C)c1	i
FC(F)(F)c1cnc(/C=C/Nc2ccccc2Cl)c(Cl)c1	i
Cc1ccc(-c2nc(SCC(=O)NCCN3C(=O)CSC3=O)[nH]c2-c2ccc(C)cc2)cc1	1.2
Cc1cccc(N2CCN(C(=O)c3ccc(Cl)c(S(=O)(=O)NCc4ccco4)c3)CC2)c1C	i
CN(C)C=NC(=O)c1ccc([N+](=O)[O-])c(CS(=O)(=O)c2ccc(Cl)cc2)c1	0.4
CC(=O)OCC(=O)Nc1ccc(Cl)cc1Cl	i
CCN(CC)S(=O)(=O)c1ccc(N(C)Cc2ccc(C(F)(F)F)cc2)nc1	2.3
CC(=O)Nc1cccc(-c2csc(NCc3ccco3)n2)c1	0.1
Cc1sc(NC(=O)C2CCCCC2C(=O)O)c(C(N)=O)c1C (stereo unspecified)	i
COC(=O)c1c(NC(=O)Cc2cccs2)sc(C(=O)N2CCCCC2)c1C	i
Cc1nnc2n1NC(c1ccc(Cl)cc1)C(C(=O)N(C)C1CCCCC1)S2 (stereo unspecified)	0.6
CCOCCCn1c(=NC(C)=O)c(C(=O)OCC)cc2c(=O)n3ccccc3nc21	3.4
Cc1ccc(NC(=O)c2ccco2)c(NC(=O)Cc2cccs2)c1	i
Brc1ccc(-c2csc(-c3c[nH]c4ccccc34)n2)cc1	i
O=C(NCC1CCCO1)c1ccccn1 (stereo unspecified)	i
COc1cc(/C=N/NC(=O)c2cc(C34CC5CC(CC(C5)C3)C4)[nH]n2)ccc1O	0.6
Cc1cc(=O)n2c(C)n[nH]c2n1	0.3
CN(C)CCOC(=O)C12CC3CC(CC(C3)C1)C2	0.3
O=C(CSc1nnc(NC2CCCCC2)s1)NC1CCS(=O)(=O)C1 (stereo unspecified)	1.6
CC1Cc2nc(SCC(=O)Nc3nccs3)n(Cc3ccccc3)c(=O)c2S1 (stereo unspecified)	0.7

Next section, overlapping the part above by 2 compounds.
SMILES	H5N1 CPE
O=C(CSc1nnc(NC2CCCCC2)s1)NC1CCS(=O)(=O)C1 (stereo unspecified)	1.6
CC1Cc2nc(SCC(=O)Nc3nccs3)n(Cc3ccccc3)c(=O)c2S1 (stereo unspecified)	0.7
O=C1/C(=C\c2cccs2)N=C(c2cccs2)N1Nc1ccccc1	1.0
CC1=C(CC(=O)c2ccc(Cl)cc2)C(=O)c2ccccc2C1=O	i
Cc1cc(C2C(=O)CC(=O)CC2c2ccccc2)on1 (stereo unspecified)	i
CCOC(=O)CSc1nnc(CNC(=O)c2ccco2)n1-c1ccc(F)cc1	0.6
CCOc1ccccc1N(CC(=O)N1CCOCC1)S(=O)(=O)c1ccccc1	1.9
O=C(Nc1nc(=O)c2ccccc2s1)c1ccc(Cl)cc1	i
CCCn1c(=O)n(C)c(=O)c2c(SCC(=O)NCc3ccco3)nc(C3CC3)nc21	1.5
CCOC(=O)C(/C(C)=N/NC(=O)c1ccccc1[N+](=O)[O-])C(C)C (stereo unspecified)	i
Cc1ccccc1N(CC(=O)N/N=C/c1ccc(Cl)cc1)C(=O)c1ccccc1	0.3
CCCCCOC(=O)Cn1c(SCC(=O)Nc2ccccc2)nc2c1c(=O)[nH]c(=O)n2C	0.8
O=C(OCCNC(=O)c1ccc2ccccc2n1)c1cccnc1	5.0
CCOCCCNCC(=O)Nc1ccccc1N1CCOCC1	i
CC(C)(C)c1ccccc1NC(=O)c1ccco1	i
O=C(c1ccc(S(=O)(=O)N2CCOCC2)cc1)N1CCN(C2=NS(=O)(=O)c3ccccc32)CC1	1.0
O=C(COC(=O)C1CC(=O)N(c2ccc3c(c2)OCCO3)C1)Nc1ccc2c(c1)CCC2 (stereo unspecified)	0.6
COC(=O)CSC1=C(C#N)C(c2ccc(C(C)C)cc2)CC(=O)N1 (stereo unspecified)	i
CC(C)CCn1cnc2c([nH]c3cccc(Cl)c32)c1=O	i
COc1ccc(C)cc1NS(=O)(=O)c1cccc2nonc12	i
Cc1cc(C)n2nc(SCC(=O)NCc3ccco3)nc2n1	1.6
COc1ccc2oc(C(=O)CCC(=O)O)c(N)c2c1	2.1
CCCN1C2CCCC1CC(NC(=O)c1ccccc1)C2 (stereo unspecified)	1.0
O=C(O)CSc1nccn1-c1cccc(Cl)c1	i
Cn1nc(CC(=O)Nc2ncc(Br)s2)c2ccccc2c1=O	1.5
CSc1ccccc1C(=O)Nc1ccc2c(c1)OCCO2	2.3
Cc1ccccc1NC(=O)CNc1ccccc1N1CCCCC1	0.7
COc1ccc(Cn2cccc(NC(=O)Nc3ccc(C#N)cc3)c2=O)cc1	0.4
O=C(NCc1ccc(F)cc1)C(c1cccs1)N(C(=O)c1csnn1)C1CC1 (stereo unspecified)	i
CCOC(=O)CNc1nc(C(C)(C)C)nc2c1nnn2Cc1ccccc1Cl	i
O[C@@H]1CCCC[C@H]1N1CCC(c2ccccc2)CC1	0.8
COc1ccc(-c2c3c(=O)n(C)c(=O)n(C)c3cn2-c2cccc(OC)c2)cc1	1.3
Cc1ccc(-c2cc(C(F)(F)F)n3nc(C(=O)Nc4c(C)n(C)n(-c5ccccc5)c4=O)cc3n2)cc1	5.9
COc1cccc(C(=O)NCc2cn3ccsc3n2)c1	i
Cc1nn(CC#N)c(=O)n1-c1ccccc1F	i
CCc1ccc(O)c(N=Cc2cccc(C)c2O)c1	0.4
c1ccc(OCCCc2nc(-c3ccccn3)no2)cc1	i
CCOc1ccc(OCC)c(-c2c(=O)n(OCc3ccc(C(C)(C)C)cc3)c3ccccc3[n+]2[O-])c1	i
O=C(Nc1ccc2oc(-c3ccc4ccccc4c3)nc2c1)c1ccc2c(c1)OCCO2	i
CCC1(C)Cc2c(C#N)c(N)n(-c3ccccc3)c(=O)c2CO1 (stereo unspecified)	0.6
COCCN1C(=O)C(=O)/C(=C(/O)c2ccc3c(c2)OCCO3)C1c1ccc(C(=O)OC)cc1 (stereo unspecified)	i
COC(=O)c1cccc(Nc2cc(C)nc(-c3ccccc3O)n2)c1	i
COc1ccc(C(=O)CSc2nnc(-c3ccccn3)n2Cc2ccco2)cc1	i
Cc1ccc(-c2cc(-c3ccc(F)cc3)nc(N)c2C#N)o1	1.7
CCN1CCC2(CCNC2)C1 (stereo unspecified)	0.4
COc1ccc(Oc2ccccc2/C=N/O)cc1	i
CCCn1c(CNC(=O)Cc2ccccc2)nc2ccccc21	i
CCCC(=O)Nc1ccc(C(=O)NNC(=O)COc2ccc(Br)c(C)c2)cc1	1.1
Cc1ccccc1Cc1c(C)nc2nc(SCC(=O)NCc3ccco3)nn2c1C	1.4
COC(=O)COc1ccc(S(=O)(=O)N2CCN(c3ccc(F)cc3)CC2)cc1	0.7
O=C(CSc1ncnc2nc[nH]c12)N1CCN(c2ccc(Cl)cc2)CC1	i
O=C(COc1ccc(Cl)cc1)N1CCN(c2cccc(C(F)(F)F)c2)CC1	i
CC1=C(C(=O)OC(C)C)C(c2ccc(F)cc2)NC(=O)N1 (stereo unspecified)	i
COc1ccc(CN=CC2=C(O)CNC2=O)cc1OC	i
CC(=O)N1CCc2cc(C(=O)CN3CCC(C)CC3)ccc21	1.8
Cc1ccc(CCNC(=O)C2CCN(C(=O)N(C)C)CC2)cc1	0.4
C=CCOC(=O)C1=C(C)OC(N)=C(C#N)C1c1ccoc1 (stereo unspecified)	0.9
CCOC(=O)C1C(c2ccccc2Cl)NC(=O)N(C)C1(O)C(F)(F)F (stereo unspecified)	i
CCOC(=O)N1CCN(C(=O)c2cc(OC)cc(OC)c2)CC1	0.1
CN(C)CCCNCCCNC(=O)c1ccccn1	i
COc1ccc(CCNc2oc(Cc3ccccc3)nc2C#N)cc1OC	i
CCS(=O)(=O)c1ccc2oc(SCC(=O)NC(C)C3CC4CCC3C4)nc2c1 (stereo unspecified)	7.3
Further compounds.
SMILES	H5N1 CPE
CS(=O)(=O)N(CC(=O)Nc1c(F)cccc1F)c1cccc([N+](=O)[O-])c1	i
c1cn2cc(CN3CCOCC3)nc2s1	0.2
Cc1ccc(N/C=C/C(=O)c2ccc(C)cc2)cc1	i
C=CCN1C(=O)CSc2ccc(C(=O)NCCC3=CCCCC3)cc21	1.6
CC(=O)c1nn(-c2cccc(Br)c2)cc1C(=O)c1ccc(Br)cc1	i
CCOC(=O)/C(=C\c1ccc([N+](=O)[O-])cc1)C(=O)c1cc(C(C)=O)c(Nc2ccccc2)s1	i
C/C(=C\C(=O)c1ccc(C)o1)Nc1ccc2c(c1)OCO2	0.2
O=C(CSc1nnc(-c2ccccn2)n1Cc1ccco1)c1ccc(-c2ccccc2)cc1	0.5
O=C(CCCCCn1c(=O)[nH]c2ccccc2c1=O)NCCCN1CCN(c2ccccc2F)CC1	i
CCOc1ccc(N2C(=O)c3cccnc3C2Nc2ccc(OC)cc2)cc1 (stereo unspecified)	i
COc1ccc(-n2c(=O)c3ccccc3n(CC(=O)NC3CCCC3)c2=O)c(OC)c1	i
O=C(OCc1ccc([N+](=O)[O-])cc1)C1CC(=O)N(c2ccccc2)C1 (stereo unspecified)	0.1
O=C(CCCOc1ccccc1)N1CCN(c2ccccn2)CC1	i
N#CCSc1nc2ccccc2c(=O)n1-c1ccccc1	1.0
CCN(CC)CCn1c(=N)n(CCO)c2ccccc21	i
O=C(NCc1ccco1)c1cc(S(=O)(=O)N2CCOCC2)ccc1Cl	0.1
Cc1cc(C)c(S(=O)(=O)ON2C(=O)c3ccccc3C2=O)cc1C	2.4
NS(=O)(=O)c1ccc(CNC(=O)CC23CC4CC(CC(C4)C2)C3)cc1	4.2
Nc1ccc2nc(SCc3ccc([N+](=O)[O-])cc3)sc2c1	0.7
COc1c(F)c(F)c(C(=O)Nc2cccc(Cl)c2N2CCOCC2)c(F)c1F	0.5
CN1CCN(C(=O)c2cnn(-c3ccccc3)c2NC(=O)c2cccs2)CC1	i
Cc1nnc2ccc(N3CCOCC3)nn12	i
Fc1ccc(Cn2cnc3ccccc32)cc1	i
Cc1nc(CC(=O)Nc2nc(-c3ccccc3)cs2)cs1	i
O=C(CCSCCc1ccccn1)Nc1nccs1	0.5
CS(=O)(=O)Nc1ccc(C(=O)NCc2ccco2)cc1	i
C=CCSc1nc2sc(-c3ccccc3)cc2c(=O)n1N	0.3
Cc1ccc(OCC(=O)NC(=S)Nc2ccc(Br)c(C)n2)cc1	1.0
O=C(NCCCN1CCC(Cc2ccccc2)CC1)C1CC(=O)N(C2CCCC2)C1 (stereo unspecified)	i
